Assay outcomes (PubChem)
TRPML1 inh: blocks the human TRPML1 channel; Q9GZU1; TRPML1-inducible cells, Ca2+ dye fluorescence, FDSS; active compounds read low; inhibition of EC80 agonist-evoked calcium signal; activity change, negative = inhibition, % (concentration not given with the values); actives 0.02% (n = 390,000); AID 624415; in the data active means activity change below about -50%; inconclusive means about -30% to -50%; inactive means above about -30%;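 note: stimulus is agonist 54-4 at its EC80 concentration; % is set by controls: 0 for no effect and ±100 for the full control effect; the text of the record puts the active cut at -80%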
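Tet-induced TRPML1-DL cells loaded with Ca8 no-wash calcium dye were read kinetically on FDSS. Compound addition was followed by EC80 agonist 54-4 (4 uM final); inhibition was read over 110 s.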
D2 PAM: human D2 receptor positive allosteric modulation; P14416; DiscoveRx D2 beta-arrestin cells, luminescence, 90 min; 100% = 57 uM dopamine signal; potentiation, % (concentration not given with the values); actives 0.23% (n = 360,000); active = potentiation of 50% or more; inconclusive = 30% to 50%; inactive = 30% or less;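 note: compound concentration not given in the record; tested on top of an EC20 dose of dopamine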
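PathHunter beta-arrestin assay in DiscoveRx D2 cells. Compounds were added with an EC20 of dopamine (50 nM final) for 90 min at 37 deg C. Luminescence was read 1 h after detection reagent, with 57 uM dopamine as the EC100 control.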
TRPV1 potentiator: enhances activation of the human vanilloid receptor TRPV1; Q8NER1; TRPV1-expressing cells, Fluo-8 calcium influx, capsaicin EC20 potentiation; host cell line not named in the record; control for the full effect not named in the record; potentiation, % at 8.33 µM; actives 0.02% (n = 320,000); active means potentiation above 80%; inconclusive means 30% to 80%; inactive means below 30%; note: 0% is about no effect
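TRPV1-expressing cells were cultured overnight at 35.5C and loaded with Fluo-8 calcium dye for 40 to 90 min at room temperature. After a 10 s baseline, compound was added and calcium influx was read kinetically for 3 min (ex 480/em 520 nm).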
CtBP-E1A inh: blocks the CtBP interaction with E1A; AlphaScreen GST-E1A/His-CtBP binding, 1536-well; active compounds read low; control for the full effect not named in the record; activity change, % (concentration not given with the values); actives 0.49% (n = 340,000); AID 651724; in the data active means activity change below about -65%; inconclusive means about -30% to -65%; inactive means above about -30%; note: % is set by controls: 0 for no effect and ±100 for the full control effect
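Steps: dispense buffer (Tris pH 8.0, NaCl 300 mM, TCEP 1 mM, BSA, Tween 20); add 5X protein mix (GST-E1A, His-CtBP, 125 nM each); pin 23 nL compound; 2 h at 37 °C, dark; add 5X beads (50 ug/mL); 1 h; read.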
Six1-Eya2 blk: blocks human Six1 binding to Eya2; AlphaScreen GST-Six1/His-Eya2 binding, biochemical; active compounds read low; control for the full effect not named in the record; activity change, % (concentration not given with the values); actives 0.56% (n = 360,000); AID 651725; in the data active = activity change below about -65%; inconclusive = about -30% to -65%; inactive = above about -30%; note: % is set by controls: 0 for no effect and ±100 for the full control effect
Target sequence (O00167 whole entry, looked up): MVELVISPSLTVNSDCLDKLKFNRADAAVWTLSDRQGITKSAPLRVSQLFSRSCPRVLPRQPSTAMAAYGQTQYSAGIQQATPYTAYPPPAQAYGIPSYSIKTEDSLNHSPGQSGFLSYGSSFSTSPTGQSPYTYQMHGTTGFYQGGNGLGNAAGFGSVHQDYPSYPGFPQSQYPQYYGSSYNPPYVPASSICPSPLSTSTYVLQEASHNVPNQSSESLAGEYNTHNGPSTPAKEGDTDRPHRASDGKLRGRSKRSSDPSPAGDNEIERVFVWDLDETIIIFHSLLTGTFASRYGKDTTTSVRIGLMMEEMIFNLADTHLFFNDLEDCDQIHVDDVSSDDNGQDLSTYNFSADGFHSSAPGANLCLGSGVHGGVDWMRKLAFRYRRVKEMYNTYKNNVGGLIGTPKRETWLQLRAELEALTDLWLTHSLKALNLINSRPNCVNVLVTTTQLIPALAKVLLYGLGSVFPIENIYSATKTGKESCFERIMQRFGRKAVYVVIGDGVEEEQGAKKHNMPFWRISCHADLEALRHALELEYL
Target sequence (Q15475 whole entry, looked up): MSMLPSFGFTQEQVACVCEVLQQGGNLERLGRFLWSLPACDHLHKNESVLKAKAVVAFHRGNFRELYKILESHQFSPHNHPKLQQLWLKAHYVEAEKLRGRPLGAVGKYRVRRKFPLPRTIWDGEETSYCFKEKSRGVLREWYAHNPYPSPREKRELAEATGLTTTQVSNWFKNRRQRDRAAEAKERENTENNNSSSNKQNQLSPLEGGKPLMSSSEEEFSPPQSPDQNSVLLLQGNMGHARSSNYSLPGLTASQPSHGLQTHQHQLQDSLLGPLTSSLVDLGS
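GST-Six1 + His-Eya2 (5X stock: 250/500 nM); Tris pH 8.0, 300 mM NaCl, 0.05% BSA, 0.02% Tween 20; GSH donor/Ni acceptor beads; 1 h 37 °C dark; AlphaScreen readout.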
TRPML1 agonist: agonists of human TRPML1 channel; Q9GZU1; TRPML1-expressing cells, Ca2+ dye fluorescence, FDSS; host cell line not named in the record; reference of the full effect not given here; activation, % (concentration not given with the values); actives 0.12% (n = 410,000); in the data active = activation above about 50%; inconclusive = about 30% to 50%; inactive = below about 30%; note: 0% is about no effect; the text of the record puts the active cut at 80%
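Tet-induced TRPML1-DL cells, 1,500 per well, cultured overnight, were loaded with a no-wash Ca2+ dye for 45–90 min. Calcium fluorescence was recorded on the FDSS for 110 s after compound addition, before the EC80 agonist (4 uM 54-4) was added.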
* hit, by the source's call; ? = inconclusive; / = not tested or not shown; & = joins results of further samples.

mol | TRPML1 inh | D2 PAM | TRPV1 potentiator | CtBP-E1A inh | Six1-Eya2 blk | TRPML1 agonist
CC12CN3CCN(CC(C3)/C1=N/NC(=O)Nc1ccccc1)C2 | -5 | -9 | -4 | 5 | 0 | -0.2
Cc1cc(=O)oc2cc(NC(=S)NCc3cccnc3)ccc12 | 8 | -5 | 11 | -1 | 2 | 2.1
Cn1c(SCC(=O)N/N=C/C=C/c2ccco2)nc2ccccc21 | 9 | -33 | 12 | 15 | -20 | 2.3
CCCCCOC(=O)c1ccccc1C(=O)O | 1 | 22 | 2 | 29 | 18 | -0.5
Oc1ccc(Br)cc1Cn1nnc2ccccc21 | / | ? | 0 | / | -7 | /
Cc1cc(=O)[nH]c2ccc(S(=O)(=O)NCc3ccccc3)cc12 | 4 | 3 | 4 | 2 | -5 | -0.2
Cc1cccc(N2C(=O)CC(Sc3nc(C)c4c(n3)CCCC4)C2=O)c1 (centres undefined) | -21 | 4 | -1 | -17 | -10 | 0.4
CCC(C)NC(=O)C1c2ccccc2C(=O)N1Cc1ccc(OC)cc1OC (centres undefined) | -17 | -11 | -8 | -14 | -3 | 0.4

Ordered by value in Six1-Eya2 blk (ascending): three of the compounds above.
compound	TRPML1 inh	D2 PAM	CtBP-E1A inh	Six1-Eya2 blk
Oc1ccc(Br)cc1Cn1nnc2ccccc21	/	?	/	-7
Cc1cc(=O)[nH]c2ccc(S(=O)(=O)NCc3ccccc3)cc12	4	3	2	-5
CCC(C)NC(=O)C1c2ccccc2C(=O)N1Cc1ccc(OC)cc1OC (centres undefined)	-17	-11	-14	-3

Additional entries follow.
mol | TRPML1 inh | D2 PAM | TRPV1 potentiator | CtBP-E1A inh | Six1-Eya2 blk | TRPML1 agonist
CCOC(=O)C1CCN(C(=O)c2cc3ccc(OC)cc3[nH]2)CC1 | 5 | -9 | -6 | 0 | -1 | -0.8
COC(=O)c1c(C)oc2ccc(N(C(C)=O)S(=O)(=O)c3ccccc3)cc12 | 3 | 5 | -11 | -9 | -6 | 2.0
Cn1cc(S(=O)(=O)N2CCC(Cc3ccccc3)CC2)c(=O)n(C)c1=O | -5 | -2 | -1 | 0 | 5 | 0.6
COc1ccc(OCC(=O)OCC(=O)Nc2cc(S(=O)(=O)N3CCOCC3)ccc2Cl)cc1 | -5 | -2 | / | 6 | -5 | 0.6
C#CCOCCOCCOCCNc1nc(N2CCN(C(=O)CCCCCCCCCCNC(=O)[C@@H](CCSC)n3cc(CCO)nn3)CC2)nc(N2CCN(C(=O)CCCCCCCCCCNC(=O)[C@H](CCCN=C(N)N)n3cc(C[C@@H](C)CC)nn3)CC2)n1 | 15 | -7 | -12 | -7 | -10 | 3.6
O=C1CNC(=S)N1CCCc1ccccc1 | 15 | -9 | 2 | 3 | -2 | -0.7
C=C(C)CNC(=S)NNC(=O)CCn1c2ccccc2c2ccccc21 | 23 | -23 | 1 | 0 | -3 | 1.6
COc1ccc(Cc2c(O)nc(SCC(=O)NC(C)(C)C)[nH]c2=O)cc1 | 5 | -3 | -1 | 8 | 5 | 0.6
C=C(c1ccc(O)cc1)c1ccc(O)cc1 | -13 | -10 | 5 | -7 | -9 | 1.6
CCS(=O)(=O)NCCCc1ccccc1 | 3 | -9 | 0 | -3 | 6 | -0.9
Cc1nc2ccc(S(=O)(=O)Nc3cccc(-c4nc5cccnc5s4)c3)cc2s1 | 3 | 1 | 16 | -23 | ? | 1.5
Cc1ccc(C(=O)N/C(=C\c2ccc(Br)cc2)c2nc(=S)[nH][nH]2)cc1 | -8 | -23 | / | -12 | -11 | 0.6
COc1ccccc1NC(=O)COc1cccc(-n2cnnn2)c1 | -6 | 2 | 3 | -10 | -4 | -0.6
CCCc1nc2cc(C)c(Br)c(C)n2c1Cc1ccc(OC)cc1C | / | / | / | 0 | 17 | -0.3
COc1cc(NC(=O)c2cccs2)c(C(=O)OCC(=O)NCc2ccccc2)cc1OC | 25 | -19 | -10 | -13 | -8 | 12
CC(=O)c1cccc(NC(=O)CN2C(=O)c3ccccc3C2=O)c1 | 8 | -6 | -2 | 0 | -1 | -0.2
CCOC(=O)N1CCN(c2nc(C)c3c(n2)CC(C)CC3=O)CC1 (centres undefined) | 8 | 9 | -12 | 3 | 2 | 0.4
CCn1c(SCC(=O)c2ccc3c(c2)OCCO3)nnc1-c1ccco1 | 3 | -7 | -28 | -2 | 0 | -0.3
COc1ccc(C(=O)NCC(C)(C)CNC(=O)c2ccc(OC)cc2)cc1 | 33 | -8 | / | 3 | 6 | 1.9
Cc1ccc(/C=C(\NC(=O)c2ccccc2)C(=O)N2CCCCC2)cc1 | 8 | 0 | 8 | -5 | 1 | 0.2
COc1cccc(C2CC(C(F)(F)F)n3ncc(C(=O)NC(C)(C)C)c3N2)c1 (centres undefined) | -4 | 14 | 10 | 5 | 5 | -1.0
CC(=O)Nc1ccc(NS(=O)(=O)c2cc(C)sc2C)cc1 | -8 | -11 | 8 | 1 | 0 | 0.0
O=C(Nc1ccccc1C(F)(F)F)N1CCN(c2ccc3nncn3n2)CC1 | -5 | -9 | -15 | 6 | 0 | 1.5
CCCCSc1nnc(CCNC(=O)OC(C)(C)C)o1 | -2 | -8 | -16 | 3 | 7 | 0.9
COc1ccc(N2CCN(C(=O)CN(Cc3ccccc3)S(C)(=O)=O)CC2)cc1 | 7 | 0 | -9 | 8 | -5 | -0.3
CC(NCC(=O)Nc1cc(Cl)cc(Cl)c1)c1ccccc1 (centres undefined) | 7 | -17 | -7 | / | 25 | 2.0
CCN(CC)C(=O)CC(c1ccc2c(c1)OCO2)c1c(OC)cc(OC)c2c(-c3ccccc3)cc(=O)oc12 (centres undefined) | -3&-11 | -17 | 24 | / | -10 | 2.1&0.9
CC(C)C(OC(=O)c1nsc(Cl)c1Cl)C(=O)NCC1CCCO1 (centres undefined) | ? | -5 | -2 | 0 | 29 | 1.5
Cc1cc(SCC#N)n2nc(C)c(-c3ccccc3)c2n1 | -13 | -14 | 1 | -2 | -4 | 2.1
CCCc1c(C(=O)N/N=C/c2cccc(OCc3ccc(F)cc3)c2)nnn1-c1nonc1N | -8 | -5 | -8 | 1 | 1 | -0.3
O=S(=O)(c1ccc(Oc2ccc3oc4ccccc4c3c2)nc1)N1CCCC1 | 0 | -7 | 5 | 4 | -1 | -0.5
Cc1cc(C)cc(CN2CCC(Oc3ccc(C(=O)N4CCCC4)cc3)CC2)c1 | 6 | -39 | -3 | 19 | 5 | 1.5
CCCC(=O)Nc1cccc(S(=O)(=O)N(C)c2ccccc2)c1 | 29 | -12 | -1 | 8 | -2 | 2.8
C#CCOCCOCCOCCNc1nc(N2CCN(C(=O)[C@H](CCC(=O)O)n3cc([C@@H](N)[C@H](C)CC)nn3)CC2)nc(N2CCN(C(=O)[C@H](CCC(=O)O)n3cc([C@@H](N)CC(N)=O)nn3)CC2)n1 | -4 | / | / | -4 | -8 | 0.4
CCSc1nc2c(c(-c3ccc(C)o3)c1C#N)CCCC2 | 2 | -17 | 22 | 31 | 31 | -0.2
Cc1ccc2nsnc2c1S(=O)(=O)N1CCN(Cc2ccc3c(c2)OCO3)CC1 | 5 | -19 | 5 | -15 | -17 | 1.3
Nc1cccnc1Oc1ccccc1F | 2 | -1 | 11 | -21 | -5 | -0.5
CC(C)C(NC(=O)c1ccc(F)cc1)C(=O)OCC(=O)N1CC(=O)Nc2ccccc21 (centres undefined) | 4 | -11 | 10 | -4 | -3 | -0.1
COc1ccc(-c2c3c(=O)n(C)c(=O)n(C)c3cn2-c2ccccc2O)cc1 | / | -6 | 14 | -16 | -7 | /
CCC1(CC)Cc2ccccc2C(N)=C1C#N | 14 | -20 | -6 | -4 | -2 | 4.1
CCOCCCN1C(=O)CN(C2CCCCC2)C(=O)C1c1ccc(OC)c(OC)c1 (centres undefined) | 9 | -11 | 7 | 9 | 6 | 0.4
C[C@H](c1ccccc1)n1nnc(COCc2ccccc2)c1C#CCOCc1ccccc1 | 63 | -4 | 3 | 44 | 41 | 3.7
CCOC(=O)c1c(C)[nH]c(O)c1C=Nc1ccccc1 | 13 | -6 | / | ? | -29 | 2.1
Cc1c(-c2ccc(F)cc2)nc(N)c(C#N)c1-c1cccnc1 | -2 | -10 | 6 | 2 | 28 | 2.1
COc1ccc(CCNS(=O)(=O)c2ccc3c(c2)CC(C)N3C(=O)C2CC2)cc1OC (centres undefined) | 6 | -10 | / | -3 | -8 | -0.9
C=C[C@@]1(C)CC(=O)[C@]2(O)[C@@]3(C)[C@@H](O)CCC(C)(C)[C@@H]3[C@H](OC(C)=O)[C@H](O)[C@@]2(C)O1 | 5 | 4 | / | 3 | -2 | -0.1
COc1ccc(CN2CNc3c(c(=O)n(C)c(=O)n3C)C2)cc1 | 0 | -15 | 10 | 9 | -5 | 0.2
O=C(CC(c1ccccc1)c1cc(Cl)ccc1O)NCCCN1CCOCC1 (centres undefined) | 5 | -5 | 9 | -3 | 0 | -0.2
C[C@@H]1CN([C@H](C)CO)C(=O)CCCn2nncc2CO[C@H]1CN(C)Cc1cccc(C(F)(F)F)c1 | -6 | -3 | / | -4 | 11 | 0.5
CCn1c([N+](=O)[O-])nc2c1c(=O)[nH]c(=O)n2C | 3 | -6 | -11 | / | -1 | -0.2
CCOC(=O)N1CCN(C(=O)c2cc3c(=O)[nH]c4ccccc4c3s2)CC1 | 9 | 4 | -13 | 0 | 7 | 2.6
Cc1nn(C)c(Cl)c1/C=C/C(=O)O | 10 | -7 | -15 | -1 | -2 | 0.2
CCN1CCN(C2=C(Cl)C(=O)N(Cc3ccccc3)C2=O)CC1 | -18 | -18 | -13 | -2 | -5 | 1.7
CCOC(=O)Cc1cc(=O)n2[nH]c(-c3ccc(C)cc3)cc2n1 | 4 | -4 | 14 | 2 | -6 | 1.0
O=C(CNc1ccccc1Cl)c1ccc(Br)cc1 | 22 | -14 | -8 | 7 | 9 | 0.6
CCCc1ccc(C(=O)NC(=O)c2ccccc2O)cc1 | 14 | -14 | -15 | 4 | -4 | 0.4

Look-ups from the list.
For D2 PAM, CCOC(=O)Cc1cc(=O)n2[nH]c(-c3ccc(C)cc3)cc2n1 has the entry -4
For TRPML1 agonist, CCCc1ccc(C(=O)NC(=O)c2ccccc2O)cc1 has the entry 0.4

New compounds follow
mol | TRPML1 inh | D2 PAM | TRPV1 potentiator | CtBP-E1A inh | Six1-Eya2 blk | TRPML1 agonist
COc1ccc(C(=O)N[C@H](C(=O)NCc2ccccc2)C(C)C)cc1 | 7 | -5 | 15 | 5 | -4 | -0.6
O=C(COC(=O)c1ccc2c(c1)OCO2)NCc1ccc2c(c1)OCO2 | -3 | -8 | -8 | -4 | 2 | 0.1
C=C(C)c1sc(-c2ccccc2)nc1C | 3 | -40 | / | -4 | -13 | -1.3
O=C1CN(S(=O)(=O)c2cc(Cl)ccc2Cl)c2ccccc2N1 | 10 | 2 | 26 | 7 | -2 | -0.4
OC(C#CCCN1CCCCC1)(c1ccccc1)c1ccccc1 | -4 | -11 | / | -1 | 2 | 0.0
Cc1cscc1-c1ccc(C(=O)Nc2c(C)cccc2C)o1 | 56 | -7 | / | -22 | -15 | 1.1

Compounds as they come; overall some 0.95% were active at least once.
